Compound activity: PubChem, National Center for Advancing Translational Sciences (NCATS)
Vaccinia Venus = inhibitors of vaccinia virus (Venus reporter); Vaccinia virus Venus reporter expression, fluorescence; Potency, µM (top dose mostly 36.5 µM), for the others: at the top dose activity change, negative = inhibition, most hits filed as inhibitors; 330,000 compounds, 0.46% hits; active means well fitted inhibition curve with a large enough effect; inconclusive means small, poorly fitted or top-dose-only effect; inactive means no such curve, though single readings can be large or run the other way; tested in A549 cells; also: nearly all actives have a fitted effect of over 30% in size; inactives centre near -10
Vaccinia mCherry = inhibitors of vaccinia virus infection (mCherry reporter signal) | Vaccinia virus mCherry reporter infection, fluorescence; about a quarter of the inactives have no number | Potency, µM (series often up to 36.5 µM), for inactives: top-dose activity change, negative = inhibition, usual class: inhibitors | 310,000 compounds, 0.63% hits | AID 720579; active = well fitted inhibition curve with a large enough effect; inconclusive = small, poorly fitted or top-dose-only effect; inactive = no such curve, though single readings can be large or run the other way; tested in A549 cells; also: nearly all actives have a fitted effect of over 35% in size; inactives centre near -10
An asterisk follows results filed as active; i = inactive; ? = inconclusive; nt = not tested or not shown; & = joins results of further samples; [ ] = dose if it differs, or a comment. % is scaled to controls: 0 for no effect and ±100 for the full control effect; potency is read from the fitted curve at half-maximal effect.

smiles	Vaccinia Venus	Vaccinia mCherry
Cc1cc([N+](=O)[O-])c2ccccc2c1NS(=O)(=O)c1ccccc1	-11%	-27%
O=C(/C=C\c1ccco1)Nc1nc(-c2ccc3ccccc3c2)cs1	?	?
CCn1c(-c2cccc(Cl)c2)n[nH]c1=S	-19%	i[1.46 µM]
Cc1cccc(N(Cc2cc(=O)[nH]c3ccccc23)C(=O)C(C)C)c1	-9%	-18%
CC1CCCCN1Cc1nc2c(c(=O)n(C)c(=O)n2C)n1Cc1c(F)cccc1Cl (centres undefined)	-9%	18%
CCC(=O)Nc1ccc2oc(-c3ccccc3Br)nc2c1	-14%	nt
COc1ccc(N(Cc2cccs2)C(=O)COc2ccc(C(C)C)cc2)cc1	-11%	-9%
CC(=O)c1c(C(C)=O)c(C)n(-c2ccc(C(=O)O)cc2)c1C	-10%	nt
O=C(CN1C(=O)C2(SCC(=O)N2c2ccccc2)c2ccccc21)NCCc1ccccc1 (centres undefined)	-7%	-21%
CC(NC(=O)COC(=O)c1ccccc1O)c1ccccc1 (centres undefined)	-9%	-23%
O=C1CCC[C@@H]2[C@@H](Cc3ccccc3)[C@H](N3CCN(c4ccccc4)CC3)C[C@@H]3CCN1[C@@H]32	?	?
CC(=O)OCC1=C(C(=O)O)N2C(=O)C(NC(=O)c3ccc(COc4c(C)cccc4Cl)o3)C2SC1 (centres undefined)	-11%	i
COc1ccc(-c2c3c(=O)n(C)c(=O)n(C)c3cn2Cc2ccccn2)cc1	-1%	-11%
COc1ccc(Br)c(C(=O)OCc2cc(=O)oc3cc(C)ccc23)c1	-5%	4%
COc1ccc(C(=O)N/N=C/c2ccccn2)cc1	-8%	-15%
Cc1ccc(-c2c(C)c(-c3ccc(F)cc3)nc(N)c2C#N)o1	-14%	nt
Cc1nc(SCC(=O)Nc2ccc(N3CCOCC3)cc2)nc(C)c1C	-28%	nt
CCn1c(SCCC(=O)O)nnc1-c1cccnc1	11%	-11%
COCCNC(=O)C1CCCN(c2nn3c(=O)cc(C)nc3s2)C1 (centres undefined)	-4%	nt
NNC(=O)CSc1nc(-c2ccccc2)nc2c1CCCC2	-13%	-13%
CCOC(=O)c1c(NC(=O)CSc2nnnn2-c2ccccc2)sc2c1CC(C)(C)NC2(C)C	?	-28%
COC(=O)[C@@]1(Cc2ccc(OC)cc2)[C@@H]2C(=CC(=O)[C@H]2CC(=O)C(=O)N(C)C)CN1C(=O)c1ccccc1	?	i
S=c1[nH]nc(-c2cc(-c3ccccc3)n[nH]2)n1/N=C/c1cccc(Cl)c1	-19%	-7%
CCCCNC(=O)NCCN1CCOCC1	-12%	-1%
CC(=O)OC[C@@H]1CN(Cc2ccccc2)C[C@H](n2cnc3c(NCc4ccco4)ncnc32)O1	13%	-14%
C/C(Cl)=C/Cn1c(SCC(C)C)nc2c1c(=O)[nH]c(=O)n2C	-6%	nt
Cc1ccc2nc(CCCc3nc4ccc(C)cc4[nH]3)[nH]c2c1	-8%	-3%
O=S1(=O)N=C(N2CCCC2)c2ccccc21	-2%	-14%
COc1ccc(NC(=O)C/C(C)=N/NC(=O)c2ccco2)c([N+](=O)[O-])c1	-6%	-9%
CCN(C(=O)CN(C)Cc1cccc(Cl)c1Cl)c1c(N)n(Cc2ccccc2)c(=O)[nH]c1=O	-30%	-14%

Reprinted at random: 2 compounds from above, in no set order.
smiles	Vaccinia Venus	Vaccinia mCherry
O=C(/C=C\c1ccco1)Nc1nc(-c2ccc3ccccc3c2)cs1	?	?
CC(NC(=O)COC(=O)c1ccccc1O)c1ccccc1 (centres undefined)	-9%	-23%

Some values from the results shown:
Vaccinia Venus result of COc1ccc(NC(=O)C/C(C)=N/NC(=O)c2ccco2)c([N+](=O)[O-])c1 reads -6%
Vaccinia Venus result of O=C(CN1C(=O)C2(SCC(=O)N2c2ccccc2)c2ccccc21)NCCc1ccccc1 (centres undefined) reads -7%

Further records
smiles	Vaccinia Venus	Vaccinia mCherry
CC(=O)c1ccc(O)c(CC=C(C)C)c1O	3%	-1%
O=C(O)c1ccc(CSC2CCCCC2)cc1	-4%	-6%
CCCCc1nn2c(=O)cc(COC(=O)c3ccccc3NC(=O)C(C)(C)C)nc2s1	-4%	-9%
O=C(c1cccnc1)N1CCN(S(=O)(=O)c2ccc(F)cc2)CC1	1%	-16%
O=C(O)C1=C[C@@H](C2CC2)C[C@@H](OCc2ccc(CO)cc2)O1	-1%	i
COc1cc(CN2CCC(n3nccc3NC(=O)C3CC3)CC2)cc(OC)c1	-6%	i
C/C=C/c1cccc(-c2nc(C(=O)NC3Cc4ccccc4C3)cc3c2[C@@H](CCO)N(C(C)=O)C3)c1	-21%	-1%
Cc1cc(F)ccc1NC(=O)Cn1c(=O)ccc2cc(S(=O)(=O)N3CCC(C)CC3)ccc21	-13%	-12%
COc1ccc(CCNC(=O)CCS(=O)(=O)c2ccc(Br)cc2)cc1OC	-13%	i
N#Cc1cc(C(=O)c2ccccc2OCC(=O)Nc2ccccc2Cl)cn(C2CCCCC2)c1=O	-12%	i
Fc1ccc(-n2c(CN3CCCCC3)n[nH]c2=S)cc1	-11%	-2%
COc1ccc(C2C(C#N)=C(N)Oc3cc(C)[nH]c(=O)c32)c(OC)c1OC (centres undefined)	-8%	nt
Cc1ccc(NCC(=O)Nc2cccc(F)c2)cc1S(=O)(=O)N1CCCCCC1	-13%	-18%
Cc1cccc(-n2c(SCc3nc(-c4ccccc4C)no3)nnc2-c2ccccc2)c1	-14%	-6%
O=C(COC(=O)c1cccc(-n2cnnn2)c1)c1ccc(Br)cc1	-11%	?
CC(C)c1cc(C(=O)NCc2ccc(F)cc2)no1	-9%	-8%
Cc1ccc(C(c2nnnn2CC2CCCO2)N2CCN(C(=O)c3ccco3)CC2)cc1 (centres undefined)	-2%	nt
O=C(CCNC(=O)c1ccccc1)OCN1C(=O)c2ccccc2C1=O	-10%	-8%
CC1(C)CC2(CCCN(CC(O)(c3ccccc3)c3ccccc3)C2)CCO1 (centres undefined)	-8%	-5%
O=C(Nc1ccc2c(c1)OCO2)c1ccc(Cl)nc1	-13%	-3%
Cn1cc(C2=C(c3ccc(Cl)cc3Cl)C(=O)NC2=O)c2ccccc21	127%&50%[activator]	9%
Cc1cc(C(=O)N2CCCC(Nc3ccc(C)c(C)c3)C2)nc(C)n1 (centres undefined)	-9%	-9%
NC(=S)NN=Cc1nccc2c(C(F)(F)C(F)(F)C(F)(F)F)cccc12	1µM*	0.32µM*
CCc1c(C(=O)NN2C(=O)C3C4CCC(O4)C3C2=O)csc1C (centres undefined)	-11%	-3%
CC1CC[C@@]2(OC1)OC1CC3C4CC=C5CC(O)CC[C@@]5(C)C4CC[C@]3(C)C1C2C (some centres undefined)	-19%	i
Cn1cc(C=O)c2ccccc21	-17%	-17%
Cc1ccccc1S(=O)(=O)Nc1cccnc1	-8%	i
Cc1ccc(-c2ccc(CCC(=O)O)n2-c2cccc(C)c2C)cc1	-10%	-5%
Cc1[nH]c2ccccc2c1C(=O)C(C)OC(=O)c1ccc([N+](=O)[O-])o1 (centres undefined)	-25%	?
COc1ccc(Cl)cc1S(=O)(=O)N1CCCC1=O	0%	-9%
CCc1c(C(=O)NCc2ccccc2Cl)[nH]c(C)c1C(C)=O	-15%	i
Cc1c(C)c2cc3c(c(C)c2oc1=O)OCN(CCc1ccccc1)C3	0%	-15%
Fc1ccc(/C=N/Nc2cc(N3CCOCC3)ncn2)cc1	1%	-5%
COc1ccc(C2CC(=O)Oc3cc(C)cc(C)c32)cc1 (centres undefined)	-12%	i
Brc1[nH]nc2ccccc12	-8%	-17%
Cn1cccc1CNC(=O)Nc1ccc(Cl)cc1	-13%	nt
Cc1ccccc1NC(=O)CN1C(=O)CCn2nc(-c3cccn3C)cc21	10%	-6%
COc1cc(-c2noc(C)c2C#Cc2ccc(N)cc2)cc(OC)c1OC	?	-30%&-39%
CC(C(=O)NCCc1ccccc1)N1c2cccc3cccc(c23)S1(=O)=O (centres undefined)	1%	-3%
CCCn1c(O)c(C=Nc2ccccc2)sc1=S	-2%	-7%
CCOCCc1nn2c(=O)cc(COC(=O)CNC(=O)c3ccc(F)cc3)nc2s1	4%	-4%
C/C(Cc1ccccc1)=N\NC(=O)CNC(=O)c1ccc(F)cc1	-16%	-18%
COc1cc(NC(=O)CNC(c2ccccc2)c2ccccc2)cc(OC)c1OC	-23%	-6%
CNC(=O)NC(=O)C(C)OC(=O)CCCc1nc2ccccc2s1 (centres undefined)	-6%	-3%
COc1ccccc1CN(Cc1nc2ccccc2c(=O)[nH]1)C(=O)Nc1cccc(C)c1	-1%	i
O=C(NCc1ccc(Cl)cc1)c1ccccc1CCc1ccccc1	-25%	-6%
O=C(NCc1ccc2c(c1)OCO2)c1ccc2c(c1)N(Cc1cccc(Cl)c1)C(=O)c1ccccc1S2	-13%	-21%
COc1ccc(C(=O)NCCc2ccc(F)cc2)cc1OC	9%	0%
Cc1noc(C)c1C(=O)N1CC(C)OC(C)C1 (centres undefined)	-5%	-9%
CCOc1ccc(C(=O)c2cc([N+](=O)[O-])ccc2N2CCOCC2)cc1	?	?
CCc1ccc(NC(=O)c2ccc3c(O)c(S(=O)(=O)c4ccc(Cl)cc4)c(=O)[nH]c3c2)cc1	-8%[7.34 µM]	-5%[7.34 µM]
COc1ccc2c(c1)C(=C(C#N)C#N)C(=O)N2CCc1ccccc1	2%[7.34 µM]	-16%[7.34 µM]
CN(C)S(=O)(=O)c1ccc2c(c1)nc(CCC(=O)Nc1ccc3c(c1)OCO3)n2C	-8%	i
Nc1nc2n(n1)C(c1cccc(Br)c1)CC(c1ccc(F)cc1)N2 (centres undefined)	-5%	-14%
COc1cccc(CNc2ccc([N+](=O)[O-])cc2Cl)c1O	-20%	-15%
CCOC(=O)N(C)OC(=O)Nc1ccc(Cl)c(Cl)c1	-3%	-4%
CC(=O)N1CC(C)Oc2ccc(S(=O)(=O)Nc3ccc(Cl)cn3)cc21 (centres undefined)	-7%	-11%
O=C(COC(=O)c1ccccc1Nc1ccccc1)NCc1ccccc1	-22%	-20%
Cc1ccc(S(=O)(=O)Nc2cc(C(C(=O)OC(C)C)C(=O)C(F)(F)F)c(O)c3ccccc23)c(C)c1 (centres undefined)	3%	-6%
O=C(NC1CCCC1)c1cccc(Cl)c1	9%	-3%

Following part.
smiles	Vaccinia Venus	Vaccinia mCherry
CCOC(=O)c1c(-c2ccc(C)cc2)csc1NC1=NS(=O)(=O)c2ccccc21	1%	-6%
Cc1cc(=O)[nH]c(N/N=C/c2c(O)n(-c3ccccc3)c(=O)c3ccccc23)n1	-6%	0%
COc1ccc(/C=C/C(=O)O)cc1S(=O)(=O)Nc1ccc2c(c1)OCO2	-12%	-16%
CCOc1cc(CN2CCN(c3cccc(C(F)(F)F)c3)CC2)ccc1OC	-12%	-21%
CCCCC(=O)Nc1ccccc1N1CCN(c2ccccc2)CC1	4%	i
Cc1nn(C)cc1/C=N/NC(=O)c1ccc2c(c1)OCO2	5%	-8%
NC(=O)c1ncc(C(F)(F)F)cc1Oc1ccc(C(F)(F)F)cc1	-25%	nt
CCOc1ccc(S(=O)(=O)NCc2ccc(Cl)cc2)c2cccnc12	-17%	i
COc1ccccc1CN(Cc1c(Cl)cccc1Cl)S(=O)(=O)c1ccc(Br)cc1	-11%	-10%
Cc1ccc(C)c(CSc2nc(-c3ccccc3F)nc3c2Cc2c(CO)cnc(C)c2O3)c1	8%	5%
Clc1ccc(C2=C3CCCCn4c(-c5ccccc5)c[n+](c43)C2)cc1	-12%	-16%
CCOP(=O)(OCC)c1nc(-c2cccc([N+](=O)[O-])c2)oc1N1CCCCC1	-18%	?
O=C(COC(=O)CC12CC3CC(CC(C3)C1)C2)Nc1cccnc1Cl	-4%	-6%
O=C(NCCc1ccccc1)C1C(=O)Nc2ccccc2C(=O)N1C1CCCCC1 (centres undefined)	-10%	-9%
Cc1ccc(C(=O)NC2CCN(CC(=O)NCc3cccs3)CC2)cc1	-14%	?
COc1ccc(NC(=S)Nc2ccc(S(N)(=O)=O)cc2)c(OC)c1	4%	7%
Cc1nc2ccc(Cl)cn2c1P(=S)(N1CCOCC1)N1CCOCC1	-1%	nt
Cn1c(=O)c2c(nc(N3CCNCC3)n2Cc2cccc3ccccc23)n(C)c1=O	-15%	-20%
CC[C@]12c3[nH]c4ccccc4c3CCN1C(=O)C(CC(=O)NCCN1CCOCC1)C[C@@H]2C(=O)N1CCN(C(=O)C2CC2)CC1 (some centres undefined)	-9%	-23%
O=C(O)c1ccccc1OCCOc1ccccc1C(=O)O	-5%	-12%
COc1ccc(-c2noc(-c3ccc(C)cc3)n2)cc1	-11%	-20%
COc1ccc(NC(=O)CCN2CCN(S(=O)(=O)c3cc(Cl)ccc3OC)CC2)cc1	-21%	nt
COC(=O)Cc1cc(OC)c(OC)cc1S(=O)(=O)N(C)C	-12%	i
Cc1ccc(S(=O)(=O)c2cn(C)c3cc(N4CCCCC4)c(F)cc3c2=O)cc1	?	-29%
O=C(OCc1ccccc1Cl)c1ccc(-c2nnn(Cc3ccccc3Cl)n2)cc1	7%	0%
